Source: PubChem BioAssay
Sa growth 42C = blocks Staphylococcus aureus growth; S. aureus RN4220 growth, OD600, 20 h, 42 °C; active compounds read low; 170,000 compounds, 0.53% hits; AID 720641; relative growth, % (test concentration not listed);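 active = growth at 42 °C up to 50% and 20 or more points under that at 30 °C, or under 10% at both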;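 also: 300 nL library stock went into each well; scaled to the means of positive and negative controls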
HCMV UL50-53 inh = inhibitors of HCMV UL50-UL53 nuclear egress complex interaction; AID 1918969; HTRF UL50-UL53 interaction, normalized percent inhibition; 190,000 compounds, 0.15% hits; inhibition, % (test concentration not listed);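 active = both replicates at 50% or more, plus weaker picks with an unusually low signal ratio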;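 also: stock transfer was 100 nL into about 20 µL; 0% = negative control wells and 100% = wells with untagged competitor protein; inactives centre near -12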
GIV-Gai inh = GIV-Galpha-i interaction inhibition; P08753; Galpha-i3/FITC-GIV peptide fluorescence polarization, 90 min; active compounds read low; scaled: aluminum fluoride 0%, vehicle 100%; percent of control (FP), % (no concentration beside the values); 210,000 compounds, 0.42% hits; AID 1224905;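 active = replicate mean at 85% of control or lower, very high polarization wells dropped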;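 also: wells of about 15 µL received 100 nL stock; the first replicate is given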
Target sequence (P08753 whole entry, looked up): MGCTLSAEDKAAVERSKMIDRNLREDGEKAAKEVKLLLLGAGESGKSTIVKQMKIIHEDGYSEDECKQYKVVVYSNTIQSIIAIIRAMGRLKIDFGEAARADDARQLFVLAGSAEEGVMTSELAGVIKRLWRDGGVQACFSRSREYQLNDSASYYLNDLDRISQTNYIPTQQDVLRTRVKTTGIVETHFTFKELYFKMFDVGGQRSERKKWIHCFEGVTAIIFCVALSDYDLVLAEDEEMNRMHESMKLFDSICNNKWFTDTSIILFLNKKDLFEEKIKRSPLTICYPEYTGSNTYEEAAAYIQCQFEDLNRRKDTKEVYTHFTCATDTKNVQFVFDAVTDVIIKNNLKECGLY
Sa growth 42C second temp = recorded beside Sa growth 42C, whose call it bears; relative growth, %; measured here: growth at 30 °C;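 optical density after 20 h as mean of two plates; 100% = untreated growth and lower means inhibition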
* = called active by the depositor; · = no result given.

SMILES	Sa growth 42C	Sa growth 42C second temp	HCMV UL50-53 inh	GIV-Gai inh
Cc1cccc(NS(=O)(=O)c2ccc3c(c2)CCCN3C(=O)C2CCC2)c1C	87.3	91.7	·	112.9
COc1ccccc1C1/C(=C(\O)c2cc(C)ccc2C)C(=O)C(=O)N1CCCN(C)C (stereo not given)	107.5	92.7	-12.9	101.5
Cc1ccc(-n2nnc(-c3nsc(NC(=O)c4ccccc4C)n3)c2C)cc1Cl	113.4	86.1	·	112.4
Cn1nc(-c2ccccc2)cc1NC(=O)CCCC(=O)O	102.4	88.1	-143.5	99.7
CCOc1ccc(-c2nnc(SCC(=O)Nc3ccccc3C(F)(F)F)o2)cc1	101.8	89.9	-20.7	101.2
Cc1nnc(N2C(=O)c3oc4ccccc4c(=O)c3C2c2ccc(Cl)cc2)s1 (stereo not given)	124.3	90.8	·	98.7
Cc1ccc(-c2cc3c(SCC(=O)Nc4nccs4)nccn3n2)cc1	·	·	-22.0	101.3
O=C(/C=C/c1ccc2ccccc2n1)OCC(=O)c1ccc2c(c1)OCO2	90.8	102.2	-1.2	·
NC(=O)c1cc(Cl)c(Cl)cc1C(N)=O	95.0	84.3	-43.5	99.2
COC(=O)CNC(=O)c1cccc(S(=O)(=O)NCc2ccccc2)c1	114.2	89.7	-13.5	·
COc1ccc(CN2C(=O)c3ccccc3C2=O)cc1	111.0	100.1	-10.4	106.5
O=C1CCN(C(=O)c2ccc(C(=O)c3ccccc3)cc2)CC1	107.9	94.1	-12.5	·
Cc1cc(C)c2oc(-c3cccc(NC(=O)c4cccc(F)c4)c3C)nc2c1	92.8	90.7	-23.4	108.7
O=C(O)COCC(=O)Nc1ccc2c(c1)oc1ccccc12	99.5	96.3	·	103.8
O=C(NC(=S)Nc1ccc2c(c1)C(=O)c1ccccc1C2=O)c1ccc(Br)cc1	·	·	-27.1	108.8
CC(=O)Nc1ccc(Nc2cc(C)c3ccccc3n2)cc1	89.3	86.6	7.0	·
COC(=O)c1ccc(C(=O)NC(=S)Nc2nc3c(s2)CCCC3)cc1	83.2	69.4	·	105.7
CC(C)(C)OC(=O)N1CCC(c2c(C(=O)NCc3ccccc3)cnn2-c2ccccc2)CC1	117.2	87.9	·	106.7
Cc1cccc(Nc2nc(C)cc(=O)[nH]2)c1	·	·	-12.9	99.9
CN(C)S(=O)(=O)c1cc(C(=O)NCCc2ccccc2)c(Cl)cc1Cl	99.1	89.5	-3.4	104.8
CCN1CCC(N(Cc2ccc(F)cc2)C(=O)Nc2cc(C)ccc2C)CC1	114.8	91.7	·	103.0
COc1ccc(NC(=O)CC2C(=O)N(c3ccc(C)cc3)C(=O)N2Cc2ccc3c(c2)OCO3)cc1 (stereo not given)	98.4	92.8	15.8	102.7
O=C(/C=C\c1ccc(-c2ccc(F)cc2)o1)Nc1ccc(N2CCOCC2)cc1	115.3	88.7	-42.5	·
Cc1ccc2cc(NC(=O)Cc3ccccc3)ccc2n1	122.3	85.3	-5.4	104.3
COC(=O)Cn1cnc2c(nnn2Cc2ccccc2F)c1=O	101.9	95.8	13.9	109.2
NC(=O)c1sc2nnc(-c3ccccc3)c(-c3ccccc3)c2c1N	92.8	94.2	-5.1	102.4
CCc1ccc(S(=O)(=O)NCC(=O)O)cc1	92.5	91.3	-12.0	100.3
COc1ccc(NC(=O)Cn2nc(-c3ccccc3)c3cnc4ccc(C)cc4c32)cc1	79.6	90.9	·	98.0
Cc1nc2ccccn2c1C(=O)N/N=C/c1ccccc1	86.8	84.3	-41.2	104.0
COc1ccccc1CNC(=O)Cn1c(=O)oc2cc(S(=O)(=O)NCc3ccccc3)ccc21	112.7	89.5	·	111.1

Arranged by length of the SMILES (high to low): part of the list above.
SMILES	Sa growth 42C	Sa growth 42C second temp	HCMV UL50-53 inh	GIV-Gai inh
COc1ccc(NC(=O)Cn2nc(-c3ccccc3)c3cnc4ccc(C)cc4c32)cc1	79.6	90.9	·	98.0
COC(=O)Cn1cnc2c(nnn2Cc2ccccc2F)c1=O	101.9	95.8	13.9	109.2
Cc1nc2ccccn2c1C(=O)N/N=C/c1ccccc1	86.8	84.3	-41.2	104.0

Further structures
SMILES	Sa growth 42C	Sa growth 42C second temp	HCMV UL50-53 inh	GIV-Gai inh
CC(=O)O[C@@H]1O[C@@H]2CO[C@@H](c3ccccc3)O[C@H]2[C@H](OC(C)=O)[C@H]1OC(C)=O	83.2	86.7	-26.7	101.3
COc1ccc(NC(=O)C2CCC(=O)N2S(=O)(=O)c2ccc(F)cc2)cc1OC (stereo not given)	·	·	-5.1	105.2
CN(C)c1ccc(CNC(=O)Cn2c(=O)oc3cc(S(=O)(=O)NCc4ccccc4)ccc32)cc1	103.6	80.9	·	104.6
COc1ccc(-c2nc(SCC(=O)NCc3ccccc3Cl)n[nH]2)cc1	84.2	92.7	·	99.3
CCn1c(CN2C(=O)c3ccccc3C2=O)nc2cc(S(=O)(=O)N(C)C)ccc21	103.7	96.8	3.3	·
CC(C(=O)NCc1ccccc1)N1Cc2ccccc2C1=O (stereo not given)	90.6	92.5	·	104.8
Cc1nc(SCCC(=O)O)c2ccccc2n1	86.2	85.5	-23.9	·
COc1ccc(CCNC(=O)c2cc3c(=O)[nH]c4ccc(C)cc4c3s2)cc1OC	114.5	84.1	-26.2	105.8
COC(=O)c1ccc(NC(=O)CC2C(=O)N(c3cccc(OC)c3)C(=O)N2Cc2ccco2)cc1 (stereo not given)	84.8	82.7	·	103.2
CCOc1ccc(NC(=O)C2CCN(S(=O)(=O)c3c(C)noc3/C=C/c3cccs3)CC2)cc1	87.6	91.7	-17.5	106.2
Cc1nc2ccc(NC(=O)c3cccc(Br)c3)cc2s1	·	·	-1.8	118.6
O=C(NCc1cccn1Cc1ccccc1)Nc1cccc(Br)c1	·	·	-15.3	101.5
COc1ccc(C2C3=C(CC(C)(C)CC3=O)Nc3onc(C)c32)cc1OC (stereo not given)	·	·	-2.0	112.5
Cc1ccc(-c2nc3nc(C)cc(N4CCN(c5cc(Cl)ccc5C)CC4)n3n2)cc1	91.4	94.8	3.9	105.5
CCc1ccc2nc(N(CCN(C)C)C(=O)c3cccs3)sc2c1	98.0	93.7	0.7	98.6

An excerpt from above with just Sa growth 42C, GIV-Gai inh and Sa growth 42C second temp.
| SMILES | Sa growth 42C | GIV-Gai inh | Sa growth 42C second temp |
| --- | --- | --- | --- |
| Cn1nc(-c2ccccc2)cc1NC(=O)CCCC(=O)O | 102.4 | 99.7 | 88.1 |
| O=C1CCN(C(=O)c2ccc(C(=O)c3ccccc3)cc2)CC1 | 107.9 | · | 94.1 |
| O=C(O)COCC(=O)Nc1ccc2c(c1)oc1ccccc12 | 99.5 | 103.8 | 96.3 |
| CCn1c(CN2C(=O)c3ccccc3C2=O)nc2cc(S(=O)(=O)N(C)C)ccc21 | 103.7 | · | 96.8 |
| O=C(NCc1cccn1Cc1ccccc1)Nc1cccc(Br)c1 | · | 101.5 | · |

Reprinted at random: seven records from the list
SMILES	Sa growth 42C	Sa growth 42C second temp	HCMV UL50-53 inh	GIV-Gai inh
COC(=O)c1ccc(NC(=O)CC2C(=O)N(c3cccc(OC)c3)C(=O)N2Cc2ccco2)cc1 (stereo not given)	84.8	82.7	·	103.2
CC(C(=O)NCc1ccccc1)N1Cc2ccccc2C1=O (stereo not given)	90.6	92.5	·	104.8
CCc1ccc2nc(N(CCN(C)C)C(=O)c3cccs3)sc2c1	98.0	93.7	0.7	98.6
Cc1nc2ccc(NC(=O)c3cccc(Br)c3)cc2s1	·	·	-1.8	118.6
CN(C)c1ccc(CNC(=O)Cn2c(=O)oc3cc(S(=O)(=O)NCc4ccccc4)ccc32)cc1	103.6	80.9	·	104.6
CCn1c(CN2C(=O)c3ccccc3C2=O)nc2cc(S(=O)(=O)N(C)C)ccc21	103.7	96.8	3.3	·
CCOc1ccc(NC(=O)C2CCN(S(=O)(=O)c3c(C)noc3/C=C/c3cccs3)CC2)cc1	87.6	91.7	-17.5	106.2

(further entries)
SMILES	Sa growth 42C	Sa growth 42C second temp	HCMV UL50-53 inh	GIV-Gai inh
Cc1[nH]c(=O)n(CN2CCN(c3ncc(C(F)(F)F)cc3Cl)CC2)c1C	109.0	96.0	8.0	·
Cc1ccc(OCC(=O)Nc2ccnn2C2CCCC2)cc1C	·	·	-10.7	99.6
CC(C)Cn1c(=O)c2sccc2n2c(CCCC(=O)N3CCN(c4ccc(F)cc4)CC3)nnc12	105.4	93.4	·	103.2
Nc1ccc(N2CCOCC2)c(Br)c1	·	·	2.8	103.3
COc1ccc(-c2nc3scc(CCNS(=O)(=O)c4ccc(NC(C)=O)cc4)n3n2)cc1	125.8	88.8	·	92.7
CCCC(=O)Nc1nc2ccc(CCC(=O)Nc3cccc(C(=O)OCC)c3)cc2s1	·	·	-31.8	101.9
N#Cc1c(-c2ccccc2)cc(-c2ccco2)c(C#N)c1N	93.8	54.5	-24.3	171.3
O=C(NCc1ccccn1)c1cccn1-c1nnc(N2CCOCC2)s1	·	·	-15.8	109.4
CCc1nc2onc(C)c2c(=O)n1CC(=O)OC	·	·	-33.8	94.6
O=C(OCc1ccc2c(c1)OCO2)c1ccc(S(=O)(=O)N2CCCC2)cc1	105.0	95.6	-7.5	98.1
CNC(=S)NCCN1C(=O)S/C(=C\c2cccnc2)C1=O	95.0	85.9	-73.7	·
CCOc1ccc2nc(SCC(=O)NC(=O)CN3CCCC3=O)sc2c1	93.7	95.0	-21.1	·
O=C(Cc1noc2ccccc12)N1CCc2ccccc21	·	·	-9.2	104.5
Nc1nc2c(c(=O)[nH]1)C(c1ccccc1)CC(=O)N2 (stereo not given)	·	·	-19.3	101.2
CC1=NN(c2ccc(Cl)c(Cl)c2)C(=O)/C1=C/c1ccc(-c2ccc3c(c2)C(=O)OC3)o1	·	·	-26.7	110.6

3 entries out of the list above, sorted by the number in Sa growth 42C, descending.
SMILES	Sa growth 42C	Sa growth 42C second temp	GIV-Gai inh
COc1ccccc1CNC(=O)Cn1c(=O)oc2cc(S(=O)(=O)NCc3ccccc3)ccc21	112.7	89.5	111.1
O=C1CCN(C(=O)c2ccc(C(=O)c3ccccc3)cc2)CC1	107.9	94.1	·
CCc1ccc(S(=O)(=O)NCC(=O)O)cc1	92.5	91.3	100.3

Next part:
SMILES	Sa growth 42C	Sa growth 42C second temp	HCMV UL50-53 inh	GIV-Gai inh
O=C(CCC(=O)c1ccccc1)NCc1ccccc1	93.8	96.0	·	111.4
C(#Cc1ccccc1)CNCc1ccc2c(c1)OCO2	95.6	85.1	-19.2	100.6
CCCCNS(=O)(=O)c1c(C)c(C)cc(C)c1C	105.2	80.1	0.2	104.5
Cc1ccc(-n2c(=O)cc(NCc3cccnc3)[nH]c2=O)cc1	111.1	94.8	3.7	98.2
O=C(OCC(=O)c1ccc(S(=O)(=O)N2CCCC2)cc1)C1=COCCO1	92.0	97.8	-22.2	·
Cc1cc(C)cc(NC(=O)N2CCN(C/C=C/c3ccccc3)CC2)c1	103.9	96.3	-29.8	98.8
COC(=O)C1=C(N)OC(CC#N)=C(C(=O)OC)C1c1ccc(OC)c(OC)c1 (stereo not given)	82.5	80.6	-16.2	·
Cc1ccc(C)c(N2CCN(S(=O)(=O)c3ccc(C4CCCCC4)cc3)CC2)c1	98.0	89.6	-20.7	103.2
CC(C)Cc1cc(-c2nnc3sc(-c4ccccc4F)nn23)n[nH]1	·	·	-20.5	100.4
CCC1=Nc2cc(C(=O)N3CCC(C)CC3)ccc2Sc2ccc(C)cc21	98.1	88.2	-2.0	105.0
CCN(Cc1nc(-c2ccc(C)cc2)no1)C(=O)Nc1ccccc1OC	84.5	88.1	·	103.3
Cc1oc(-c2ccno2)cc1S(=O)(=O)Nc1cc(F)ccc1F	·	·	-12.4	104.9
Cc1ccc(N2C(=O)NC(=O)/C(=C/c3ccc(Br)o3)C2=O)cc1Cl	89.8	74.3	-15.8	228.0
Cc1cc2nc3c(=O)n(C4CCCCC4)c(=O)[nH]c3nc2cc1N=CN(C)C	82.6	92.3	-29.4	157.0
Nc1c(Cl)cc(-c2noc(-c3cccs3)n2)cc1Cl	101.1	106.1	0.2	97.0
N#C/C(=C\c1cn(CC(=O)NCC2CCCO2)c2ccccc12)C(=O)NCC1CCCO1 (stereo not given)	98.2	75.7	-52.0	101.1
CC1(C)OC(CN)C(CN)O1 (stereo not given)	112.5	80.9	-10.2	100.4
COc1ccc(-c2nc3cc(C)ccn3c2NC(=O)c2cccc(F)c2)cc1	109.0	97.8	5.3	105.8
Cc1ccc(NC(=O)N2CCc3c([nH]c4ccccc34)C2c2ccccc2F)c(Cl)c1 (stereo not given)	132.6	98.0	·	104.9
Cc1ccc(CSc2nnc(NC(=O)C3=NNC(=O)CC3)s2)cc1	86.5	88.5	-32.6	·
COc1ccc(NC(=O)CSC2=Nc3ccccc3C3=NC(CCC(=O)NCc4ccco4)C(=O)N23)cc1 (stereo not given)	104.8	85.1	·	104.8
O=C(O)/C=C\C(=O)Nc1cccc(C(F)(F)F)c1	110.6	84.8	-9.7	·
O=C(CSc1nc(-c2ccccc2)cs1)NCCCN1CCCC1=O	79.8	87.7	-34.1	·
Cc1ccc(NCC(O)c2ccc(Cl)cc2)cc1 (stereo not given)	82.3	92.0	-26.4	·
O=C(Cn1nc2c(Sc3ccccc3)nc3ccccc3n2c1=O)Nc1cccc(Cl)c1	·	·	7.2	110.8
Clc1ccc(-c2csc(-c3ccsc3)n2)s1	70.2	84.6	-12.0	95.6
CCCSc1ncc(Cl)c(C(=O)N(Cc2ccc(Cl)cc2)Cc2ccco2)n1	92.9	80.6	-3.9	100.4
COc1cc(OC)c(N2C(=O)C=CC2=O)cc1Cl	93.1	78.3	-14.6	106.5

Outcome played no part in choosing rows. About 0.79% of those tested had a hit in this group.
